Screens: PubChem, National Center for Advancing Translational Sciences (NCATS)
MARV entry inh: blocks Marburg virus binding to or entry into cells; Marburg virus pseudotyped entry inhibition, cell reporter; control for the full effect not named in the record; about a third of the inactives were read at about 46 µM; Potency, µM (highest dose often 37.8 µM), for the others: top-dose activity change, negative = inhibition, most hits filed as inhibitors; 300,000 tested, 1.8% active; active = well fitted inhibition curve with a large enough effect; inconclusive = small, poorly fitted or top-dose-only effect, or effect the other way; inactive = flat fitted curve, though single readings scatter; tested in HEK293 cells; about a fifth of its hits are not listed in these tables; further: on the % scale 0 is the no-effect control and ±100 the full control effect; luciferase read-out
Cruzain noTriton: blocks cruzain activity in detergent-free assay. 200,000 tested, 2.3% active. Potency, µM, for inactives: max response, negative = inhibition, hits mostly inhibitors. purified cruzain, Z-FR-AMC fluorescence, no detergent. AID 1476. P25779;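 further: plate controls were enzyme without inhibitor for no effect and buffer without enzyme for full effect; nearly all actives have a fitted effect of over 40% in size; top concentration of the series not given in the record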
Target sequence (P25779 123-467 limits assumed): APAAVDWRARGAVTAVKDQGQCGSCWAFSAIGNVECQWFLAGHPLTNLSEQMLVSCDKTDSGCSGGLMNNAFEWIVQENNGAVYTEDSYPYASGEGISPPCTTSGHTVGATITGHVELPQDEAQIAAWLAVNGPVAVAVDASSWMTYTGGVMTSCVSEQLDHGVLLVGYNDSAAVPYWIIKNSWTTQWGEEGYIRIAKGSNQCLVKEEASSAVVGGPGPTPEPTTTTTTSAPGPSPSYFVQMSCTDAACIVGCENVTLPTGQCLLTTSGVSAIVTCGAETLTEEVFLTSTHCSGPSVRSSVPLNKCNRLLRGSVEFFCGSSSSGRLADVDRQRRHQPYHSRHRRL
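Detergent-free condition (0.00005% Triton X-100) in acetate buffer pH 5.5 with DTT. 1.5 nM enzyme and compound were pre-mixed 15 min, then 2 uM Z-FR-AMC substrate added; reaction progress from fluorescence change between first and third reads (60 s).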
LASV entry inh: Lassa virus entry inhibition; Potency, µM (top dose mostly 37.9 µM), inactives show at the highest dose activity change, negative = inhibition, usual class: inhibitors; Lassa virus pseudotype entry inhibition, cell reporter; control for the full effect not named in the record; 300,000 tested, 1.2% active; active means well fitted inhibition curve with a large enough effect; inconclusive means small, poorly fitted or top-dose-only effect, or effect the other way; inactive means flat fitted curve, though single readings scatter; tested in HEK293 cells; further: on the % scale 0 is the no-effect control and ±100 the full control effect; nearly all actives have a fitted effect of over 50% in size; luciferase read-out
2A StopGo: FMDV 2A StopGo reporter, luciferase signal; Potency, µM (titrated, usually from 57.9 µM), without a hit: at the highest dose signal change, negative = less light; AID 1159524; 410,000 tested, 1.2% active; human cells with a luciferase reporter of 2A StopGo recoding; control for the full effect not named in the record; active = well fitted falling curve with a large enough effect; inconclusive = small, poorly fitted or top-dose-only effect; inactive = no such curve, though single readings can be large or run the other way; tested in HEK293T cells; further: on the % scale 0 is the no-effect control and ±100 the full control effect; nearly all actives have a fitted effect of over 45% in size; luciferase light after 4 h
RE007 growth inh: less growth of the S. pombe RE007 Vpr strain. S. pombe RE007 Vpr strain, BacTiter-Glo ATP luminescence, 24 h; control for the full effect not named in the record. Potency, µM (series often up to 92.2 µM), for the others: at the highest dose activity change, negative = less growth. 360,000 tested, 0.21% active. AID 651644; active = well fitted falling curve with a large enough effect; inconclusive = small, poorly fitted or top-dose-only effect; inactive = no such curve, though single readings can be large or run the other way;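 further: on the % scale 0 is the no-effect control and ±100 the full control effect; nearly all actives have a fitted effect of over 50% in size; the assay follows cell death caused by Vpr and the record does not say whether a fall means rescue or toxicity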
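Fission yeast RE007 carrying one integrated HIV-1 vpr copy, seeded at OD 0.01 in PMG+AL medium with 23 nL pinned compound. Grown 24 h at 30 degrees; viability read by BacTiter-Glo luminescence after 5 min.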
NS1 function inh: blocks influenza NS1 protein function | AID 2326 | 270,000 tested, 0.4% active | Potency, µM (highest dose often 46.1 µM), without a hit: at the top dose activity, positive = more growth | S. cerevisiae slowed by influenza A NS1, growth recovery by OD600; active means well fitted rising curve with a large enough effect; inconclusive means small, poorly fitted or top-dose-only effect; inactive means no such curve, though single readings can be large or run the other way; further: nearly all actives have a fitted effect of over 50% in size
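In this qHTS, NS1 from influenza A is expressed in budding yeast, where it slows growth. Cells are switched from glucose to 2% galactose medium (pH 6.0, -URA), treated with compound, and growth recovery is read at OD600.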
SARS PLP yeast: blocks SARS-CoV papain-like protease in a yeast assay; S. cerevisiae expressing SARS-CoV PLpro, growth rescue; control for the full effect not named in the record; Potency, µM (doses to about 32.9 µM), inactives show top-dose activity, positive = growth rescue; 330,000 tested, 0.19% active; AID 485353; active means well fitted rising curve with a large enough effect; inconclusive means small, poorly fitted or top-dose-only effect; inactive means no such curve, though single readings can be large or run the other way; further: 0% is about no effect; nearly all actives have a fitted effect of over 55% in size; growth read by luminescence after 48 h
Cruzain inh Det: blocks cruzain activity in presence of Triton detergent; P25779; Potency, µM, for inactives: max response, negative = inhibition, most hits filed as inhibitors; purified cruzain, Z-FR-AMC fluorescence, 0.01% Triton; 200,000 tested, 0.43% active;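 further: plate controls were neutral wells for no effect and buffer without enzyme for full effect; nearly all actives have a fitted effect of over 40% in size; top concentration of the series not given in the record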
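Detergent-containing run (0.01% Triton X-100) in acetate buffer pH 5.5 with 5 mM DTT: enzyme at 1.5 nM final, 15 min compound preincubation at room temperature, then 2 uM Z-FR-AMC substrate. Activity taken as 60 s fluorescence increase at 360/450 nm.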
An asterisk follows results filed as active; ? = inconclusive; nt = no result given; & = joins results of further samples; [ ] = remark or other dose. Unless noted, the call rests on the fitted dose curve; in most records, active means well fitted curve in the direction sought with a large enough effect; inconclusive means small, poorly fitted or top-dose-only effect, or another doubt; inactive means no such curve, though single readings can be large; an effect the other way counts as inactive or inconclusive. Potency means the concentration at half of the fitted maximal effect.

SMILES	MARV entry inh	Cruzain noTriton	LASV entry inh	2A StopGo	RE007 growth inh	NS1 function inh	SARS PLP yeast	Cruzain inh Det
CC(C)C1Cc2c(C#N)c(N)n(C)c(=S)c2CO1 (stereo not given)	3.2%	2.2%	5.4%	7.2%	-12.5%	9.7%	-1.9%	-8.9%
CC1(C)C(=O)OC(c2ccc([N+](=O)[O-])cc2)C(C)(C)C1=O (stereo not given)	nt	nt	nt	-17.5%	-4.7%	5.7%	-0.1%	nt
CCOC(=O)Cn1nc(/C=C/c2ccc(C(C)C)cc2)ccc1=O	?	?	?	-20.1%	-2.3%	-2.9%	-5.8%	-16.4%
O=C(NCc1ccncc1)c1ccc2nc(Cc3ccccc3F)oc2c1	-13.5%	nt	0.3%	-17.3%	-12.1%	3.4%	-3.2%	nt
COc1cc(NC(=O)c2nn(C)c3c2COc2ccccc2-3)cc(OC)c1OC	6.7%[46.1 µM]	2.5%	0.8%[46.1 µM]	-13.7%	nt	nt	nt	-1.6%
O=C(Cn1nnc(-c2ccncc2)n1)N(C1CCCCC1)C1CCCCC1	-4.1%	2.1%	-1.3%	?	17.4%	-12.3%	-1.2%	-5.0%
CCCCn1c(=O)[nH]c(=O)c2c1nc(-c1ccc(OC)c(Br)c1)n2CC(C)C	?	nt	nt	-5.5%	8.3%	8.6%	-13.7%	nt
Cc1ccc(NC(=O)Cn2cc3c(n2)CCCCC3)cc1	14.8%[46.1 µM]	-7.2%	-2.3%[46.1 µM]	0.0%	nt	nt	nt	-1.4%
CCOc1ccccc1NC(=O)CN1C=NS(=O)(=O)c2ccccc21	nt	-5.3%	0.4%[46.1 µM]	-17.0%	nt	nt	nt	2.5%
CCOc1ccc(Br)cc1S(=O)(=O)Nc1cccc(S(=O)(=O)N(C)c2ccccc2)c1	7.94µM*	-21.6%	-27.7%	-18.8%	-0.4%	?	3.8%	-3.0%
O=C(Cn1c(=O)n(CC2CS2)c2ccccc21)N1CCCCCC1 (stereo not given)	3.4%[46.1 µM]	nt	11.2%	16.4%	6.4%	-1.2%	-0.8%	nt
O=C1C(Cl)=C(N2CCOCC2)C(=O)N1c1ccccc1Cl	-23.9%	-26.0%	-0.3%	0.0%	1.1%	5.3%	10.1%	?
CC1CCN(C(c2nnnn2CCc2ccccc2)C(C)C)CC1 (stereo not given)	nt	nt	nt	-13.0%	-14.9%	-5.8%	0.2%	nt
CCN(CC)c1ccc(/C=N/N2C(=O)c3ccccc3C2=O)c(O)c1	9.1%	?	2.9%	9.5%	4.5%	20.4%	-11.1%	-2.7%
CCOC(=O)/C(C#N)=C1/SC(CC)C(=O)N1c1ccc(Br)cc1 (stereo not given)	-7.5%	-7.7%	3.9%	-13.1%	5.2%	13.3%	7.5%	-5.7%
CCn1c(SCC(=O)N/N=C/c2ccc(C)o2)nnc1-c1ccc(C)cc1	7.0%	-13.4%	-3.7%	0.0%	2.0%	0.3%	-3.4%	-1.9%
CCOC(=O)CSc1nc2c(sc3ccccc32)c(=O)n1Cc1ccc(C)cc1	nt	2.1%	?	0.0%	nt	nt	nt	2.6%
CC(C)c1cc(C(=O)O)c2cnn(C(C)C)c2n1	nt	nt	nt	-23.2%	-0.2%	1.2%	-0.8%	nt
Cc1nnsc1C(=O)Oc1ccc(C(C)C)cc1	-0.1%[46.1 µM]	-1.8%	8.2%[46.1 µM]	6.6%	nt	nt	nt	-6.0%
COc1ccc(CCNC(=O)CSc2nc(=O)n3cc(C)ccc3n2)cc1OC	?	nt	-8.5%	-21.6%	-16.8%	nt	6.2%	nt
CC1=C(c2ccc(Cl)cc2)S(=O)(=O)N=C1N1CCN(c2cccc(C)c2C)CC1	?	-8.8%	-5.5%[46.1 µM]	-12.3%	nt	nt	nt	-9.9%
CCc1ccc(N=C2NC(=O)CS2)cc1	?	nt	24.9%	5.2%	-10.4%	-1.5%	-5.4%	nt
CCOC(=O)c1ccc(NC(=O)CNS(=O)(=O)c2ccccc2)cc1	-20.6%	4.4%	-3.2%	-9.2%	28.7%	-4.0%	-10.4%	-4.9%
Cc1ccc(NC(=O)CCOc2ccccc2)cc1	nt	-8.3%	18.6%[46.1 µM]	55.8%&76.8%[activator]	-4.9%	-35.5%	-1.2%	-2.7%
CC(C)(C)c1ccc(C(=O)N2CCCC(c3nc4c(nnn4Cc4cccc(F)c4)c(=O)[nH]3)C2)cc1 (stereo not given)	0.9%[46.1 µM]	?	-22.5%[46.1 µM]	?	nt	nt	nt	-11.2%
CCCc1cc(=O)[nH]c(Nc2ccc(O)cc2C)n1	-26.7%[46.1 µM]	6.8%	5.5%[46.1 µM]	-15.3%	nt	nt	nt	-6.3%
CCC1=Nc2cc(C(=O)NCc3ccco3)ccc2Sc2ccccc21	-13.3%	-22.9%	?	6.8%	-5.8%	?	-31.7%	-10.6%
CC1CN(C(=O)COC(=O)c2cc(S(N)(=O)=O)c(Cl)cc2Cl)CC(C)O1 (stereo not given)	?	nt	0.3%[46.1 µM]	-2.1%	1.4%	-0.1%	-0.6%	nt
COc1cc(C(=O)Oc2ccc(/C=N/NC(=O)c3ccncc3)cc2)cc(OC)c1OC	nt	nt	nt	-11.0%	-11.2%	-5.1%	3.9%	nt
CCc1ccn2cc(-c3ccc4c(c3)OCO4)nc2c1	nt	nt	0.891µM*	8.91µM*	?	-69.2%	-9.4%	nt
Cc1ccc(C)c(N2CCN(CCCNC(=O)Cn3c(=O)c4cccn4c4cccnc43)CC2)c1	nt	nt	nt	19.6%	-3.6%	7.9%	-4.8%	nt
Cc1ccccc1NC(=O)CC(=O)Nc1ccccc1C	-1.0%[46.1 µM]	nt	2.1%[46.1 µM]	-5.4%	-23.2%	-3.5%	0.1%	nt
N#Cc1ccc(S(=O)(=O)N2CCN(c3ncccn3)CC2)cc1	nt	nt	nt	-4.7%	3.6%	-0.2%	-2.5%	nt
CCOc1ccc(N(CC(=O)N2CCN(c3ccccc3)CC2)S(=O)(=O)c2c(C)noc2C)cc1	nt	?	nt	-22.6%	-0.1%	-5.1%	-8.9%	-0.8%
O=C(COc1ccc(C(=O)c2ccccc2)cc1)NCC(=O)Nc1ccccc1Br	-4.3%	-0.1%	?	7.4%	8.4%	-19.8%	4.5%	-4.8%
COCCSc1nnc(NC(=O)Cc2ccc(OC)c(OC)c2)s1	?	nt	?	23.3%	0.2%	-0.3%	-0.5%	nt
CCOC(=O)C1C(c2cccc(F)c2)NC(=S)NC1(O)C(F)(F)F (stereo not given)	8.8%	8.3%	5.4%	-6.0%	-3.0%	23.5%	-3.2%	-3.2%
O=C(O)c1ccccc1CSc1nc2ccccc2[nH]1	3.9%[46.1 µM]	nt	-16.9%	26.2%	-1.5%	-8.2%	3.5%	nt
CCN(CC)CCNc1ccc(CO)c2sc3ccccc3c(=O)c12	11.2µM*	-25.7%&2.5%&-14.8%	?	?	-29.4%	-6.9%	-2.2%	-3.5%&-9.2%&-3.8%
CCCc1ccc2oc(C(=O)NCCCN3CCOCC3)c(C)c2c1	?	nt	28.5%[46.1 µM]	16.6%	17.1%	10.5%	-8.4%	nt
O=C(N/N=C/c1c(O)n(CCC2=CCCCC2)c(=S)[nH]c1=O)c1ccccc1	?	-4.1%	2.9%	0.0%	10.4%	?	11.2µM*	2.5%
COc1ccc(NC(=O)CN2C(=O)NC(c3ccccc3)(c3ccccc3)C2=O)cc1OC	1.1%[46.1 µM]	nt	-10.0%[46.1 µM]	-2.2%	-10.5%	-3.3%	0.7%	nt
CCC(=O)OCCNc1cc(Sc2nccn2C)c2nonc2c1[N+](=O)[O-]	?	-8.2%	?	?	4.0%	5.7%	-26.8%	-18.7%
C/C=C(/C)C(=O)OC1Cc2c(ccc3ccc(=O)oc23)OC1(C)C (stereo not given)	nt	5.5%	nt	-6.6%&-28.7%	1.2%	0.9%	2.0%	3.4%
Cc1cc2n(c(=O)c1C#N)CCCN2c1ccccc1	?	-3.4%	4.9%	-3.5%	-2.7%	2.2%[9.22 µM]	-5.8%	-7.2%
COCCn1c(COc2ccc(C)cc2)nc2ccccc21	?	1.2%	?	-2.5%	?	-82.9%	-3.2%	4.2%
COc1cc(C)c(CN2CCC(Cc3ccccc3)CC2)cc1C	nt	nt	nt	?	1.6%	-5.1%	0.9%	nt
Cc1ccc(-c2nnc(SCC(=O)O)n2N)cc1	?	3.7%	4.5%	-12.9%	-0.3%	-4.4%	4.3%	4.2%
CCOc1cc(C(c2c(C)[nH]n(-c3ccccc3)c2=O)c2c(C)[nH]n(-c3ccccc3)c2=O)ccc1O	nt	?	-1.9%[46.1 µM]	?	nt	nt	nt	-5.0%
